H5N1 CPE: MDCK cell protection from H5N1 avian flu. cytopathic effect, luminescence, 72 h; active compounds read high; no value below 0 was filed and about half of the inactive calls have no number; reference of the scale not given here. inhibition, % at 50 µM. 0.07% of 96,000 active. AID 740, 2007; in the data active = inhibition above about 25%
Numbers without * were called inactive; i = inactive.

Molecule	H5N1 CPE
CC(C)CCNC(=O)NC(=O)COC(=O)c1cc(S(=O)(=O)N2CCOCC2)ccc1N1CCCCC1	i
O=C(O)CCC(=O)N1CCc2cc(S(=O)(=O)N3CC=C(c4ccccc4)CC3)ccc21	2.0
Cc1cccc(N(CC(=O)NC2CCCC2)C(=O)CCCC(=O)Nc2ccccn2)c1	i
COc1ccc(C(=O)CSc2nnc(CNc3ccc(C)cc3C)n2Cc2ccco2)cc1	i
O=C(CN1CCC(n2nnc3cc(F)ccc32)CC1)N1CCCc2ccccc21	i
CCOc1cc(CO)c(Br)cc1OCC(=O)O	0.5
CCOC(=O)/C(=N\NC(=O)c1ccccc1)c1ccccc1	i
CN(C)CC(C)(C)CNS(=O)(=O)c1ccc(Cl)c(Cl)c1	1.9
COC(=O)c1ccc(OCC(O)Cn2nnc3ccccc32)cc1 (configuration not stated)	0.6
CC(=O)c1cccc(NC(=O)Cn2cc3c(n2)CCCC3)c1	1.0
O=C(Nc1ccc(-n2nncc2-c2ccco2)cc1)c1cccc(F)c1	i
COc1ccc(Cl)cc1NC(=O)CN(c1ccccc1)S(=O)(=O)N(C)C	5.2
Cc1csc(SCC(=O)N2CCN(S(=O)(=O)c3ccc(Cl)cc3)CC2)n1	0.6
CCNC(=S)NNC(=O)c1csc2c1CCC(C)C2 (configuration not stated)	0.1
CCOC(=O)C1CCN(C(=O)CNS(=O)(=O)c2ccc(Br)s2)CC1	i
C=CCn1c(N)c(C(=O)Nc2ccc(C)c(C)c2)c2nc3ccccc3nc21	i
CC1CCc2c(C(=O)Oc3cccc(-n4cnnn4)c3)csc2C1 (configuration not stated)	i
Cc1nnc(NC(=O)CSc2nnc(Cc3cccn3C)n2CCc2ccccc2)s1	i
O=C(CCc1nc2ccccc2[nH]1)Nc1ccc2c(c1)OCO2	i
CCC(C)NC(=O)C1c2cc(OC)c(OC)cc2C(=O)N(C)C1c1ccc(OC)cc1 (configuration not stated)	i
Cc1ccc(NC(=O)c2cnccn2)c(OC(F)F)c1	i
COc1ccc(CC(=O)n2nc(-c3ccc(Cl)cc3)nc2NCc2ccco2)cc1	1.0
CC1(C)Oc2ccc(C(=O)N3CCCC3)cc2N(CC(=O)NCc2ccccc2)C1=O	0.7
Cc1ccc(CS(=O)(=O)Cc2ccc(C(=O)NCC3CCCO3)o2)cc1 (configuration not stated)	i
N=c1c2c3c(sc2ncn1CCCO)CCCC3	0.8
CCc1noc(C)c1C(=O)N1CC(C)OC(C)C1 (configuration not stated)	i
O=C(Nc1ccccc1C(F)(F)F)N1CCC(N2CCCCC2)CC1	i
CCN=C1SC(C(=O)Nc2ccccc2)CC(=O)N1CC (configuration not stated)	i
CC(C)OCCCN1CN(S(=O)(=O)c2ccc(Cl)cc2)c2nc3ccccc3nc21	0.7
CNC(C(=O)c1ccccc1)C(OC)c1ccccc1 (configuration not stated)	i
CN(Cc1ccccc1)Cc1nc2c([nH]1)c(=O)n(C)c(=O)n2C	2.3
Cc1nnc(-c2cccc(Br)c2)c2cn(-c3ccc(Br)cc3)nc12	i
N#Cc1c(N)nc2c(c1N)CC(=O)N2c1ccccc1-c1ccccc1	i
c1ccc(Cn2c(-c3cccs3)nc3nc4ccccc4nc32)cc1	i
CCCCCC(=O)N1CCN(CCN=CC2=C(O)CC(c3ccc(OC)cc3)CC2=O)CC1 (configuration not stated)	i
CCn1c(SCc2ccc(F)cc2)nnc1-c1nn(-c2ccccc2)ccc1=O	3.3
COc1ccc(CSc2nc3ccccc3[nH]2)cc1	i
O=C(c1cc(S(=O)(=O)N2CCCCC2)ccc1F)N1CCC2(CC1)OCCO2	1.8
Cn1c(NCCCO)nc2c1c(=O)n(Cc1ccccc1F)c(=O)n2C	0.5
Cc1ccc(CSCCNC(=O)/C=C/c2ccccc2Cl)cc1	i
Cc1ccc(C2CC(c3cccc(Br)c3)n3nc(N)nc3N2)cc1 (configuration not stated)	i
O=C(CN1CCC(O)(c2ccc3c(c2)OCO3)CC1)N1CCOCC1	i
COc1ccc(NC(=S)NC(NC(=O)/C=C/c2ccccc2)C(Cl)(Cl)Cl)cc1 (configuration not stated)	i
Cc1cc(C(=O)OCC(=O)Nc2cc(C(F)(F)F)ccc2N2CCOCC2)c(C)o1	i
Cc1cc(C)c(S(=O)(=O)N(C)CC(=O)N2CCCCC2)c(C)c1	0.5
Cc1cccn2c(=O)c3cc(C(=O)NC4CCS(=O)(=O)C4)sc3nc12 (configuration not stated)	0.4
Cc1cc(NC(=O)c2cncc(Br)c2)n(-c2ccccn2)n1	0.4
Nc1nnc(N2CCc3ccccc32)s1	0.8
COc1cc(NS(=O)(=O)c2ccc(NC(=O)COc3ccccc3Cl)cc2)nc(OC)n1	0.5
CCCCOC(=O)C1[C@H]2C(=O)N(Cc3cccs3)C[C@]23C=C[C@H]1O3 (some centres not stated)	i
CCC(C)C(NC(=O)C1CCC(C)CC1)C(=O)NC(C(=O)OC)C(C)C (configuration not stated)	i
Cc1cc(=O)c2cc(Br)ccc2[nH]1	i
FC(F)(F)c1ccc(-n2ccnc2)nc1	i
Cc1ccc(C(=O)c2cc3ccccc3o2)cc1C	i
CC1Cc2nc(SCC(=O)N3CCc4ccccc43)n(C)c(=O)c2S1 (configuration not stated)	3.6
COc1cc(/C=C2\SC(=S)N(Nc3ncc(C(F)(F)F)cc3Cl)C2=O)cc(OC)c1OC	1.1
Cn1c(=O)cc(OCCCC(=O)NCc2ccco2)c2ccccc21	2.4
CCN(CC)C(=O)Oc1ccc(NC(C)=O)cc1	0.2
Cc1ccc(-n2ncc3c(N4CCN(c5ccc(F)cc5)CC4)ncnc32)c(C)c1	i
N#CC1=C(SCC(=O)NC2CCCCC2)NC(=O)CC1c1ccco1 (configuration not stated)	0.5

The list continues.
SMILES | H5N1 CPE
Cc1c(NC(=O)c2cccs2)cccc1C(=O)O | i
Cc1ccc(Nc2nc(C3CC3)cs2)cc1 | i
O=C(C1CC1)N1CCN=C1SCc1cccc(F)c1 | 1.5
CN=C(NC#N)SCC(=O)c1ccc(Cl)cc1Cl | 1.5
Oc1c(C(c2ccccc2)N2CCN(Cc3ccccc3)CC2)sc2ncnn12 (configuration not stated) | i
Cc1ccc2nc(/C(C#N)=N/O)[nH]c2c1 | 0.2
CC(C)(C)OC(=O)N1CCC(c2cc(=O)n3[nH]c(-c4ccc(Cl)cc4)cc3n2)CC1 | i
Cc1cc(C)cc(-n2c(C)cc(C(=O)CSc3nnnn3C)c2C)c1 | i
Cn1c(=O)[nH]c2cc(Cl)cnc21 | i
Cc1ccc(Nc2c([N+](=O)[O-])ccc3c2=NC2(CCCCC2)N=3)cc1 | i
CCc1c(O)nc(SCC(=O)N2CCCCC2)n(-c2ccccc2C)c1=O | 1.3
O=C(CSCC(=O)N1CCCCC1)OCC(=O)c1c[nH]c2ccccc12 | i
CS(=O)(=O)N1CCC(C(=O)Nc2ccc3c(c2)OCCO3)CC1 | 0.3
COc1cccc(-c2nc(CS(=O)(=O)CC(=O)N3CCN(C)CC3)c(C)o2)c1 | i
CN1C(=O)C(=Cc2ccc(N3CCCCCC3)o2)C(=O)N(C)C1=S | i
CCOC(=O)c1c(/N=C/c2c(O)n(-c3ccccc3F)c(=S)[nH]c2=O)sc2c1CCCC2 | 1.3
COCCn1c(SCc2nnc(-c3ccccc3)o2)nc2sc3c(c2c1=O)CCC3 | 2.5
CC(=O)c1ccc(N2CCN(C(=O)C3CCN(S(=O)(=O)Cc4ccccc4)CC3)CC2)cc1 | 0.9
CCCc1[nH]nc2c1C1(C(=O)N(C(C)C)c3ccccc31)C(C#N)=C(N)O2 (configuration not stated) | i
N#CCCSCc1ccc2oc(C(=O)O)cc2c1 | 2.0
O=C(Nc1nc2n(n1)C(c1ccccc1)C=C(c1ccccc1)N2)c1ccco1 (configuration not stated) | 0.4
O=C(CN1C(=O)C2CC=C(Cl)CC2C1=O)Nc1ccc(C(=O)O)cc1 (configuration not stated) | 1.1
CCOC(=O)c1nnn(-c2nonc2-n2cccc2)c1CN1CCC(C(=O)OCC)CC1 | 4.3
Cc1ccc(C#N)c(SCc2cc3c(cc2Cl)OCO3)n1 | i
Cc1ccc(NC(=O)C(C)Sc2nc(=O)cc(N)n2-c2ccccc2)cc1 (configuration not stated) | 0.4
N/C(=N\OC(=O)c1ccc(Cl)cc1Cl)c1ccccc1 | 1.3
O=c1c2c([nH]c3ccccc13)C(=C1CCCC1)CC2 | 0.8
CC(=O)c1ccc(N2CCN(C(=O)c3ccc(Br)cc3)CC2)c(F)c1 | i
OC(C#CCN1CCCC1)c1ccccc1 (configuration not stated) | i
Cc1ccc(OC(F)F)c(NC(=O)Nc2cccc(C(F)(F)F)c2)c1 | i
CNc1nc(C)c(C(=O)OCc2ccccc2)s1 | i
O=C(Cc1ncc(C(F)(F)F)cc1Cl)Nc1cccc(Br)c1 | 0.8
O=C(CS(=O)(=O)Cc1ccccc1)N1CCN(c2cccc(C(F)(F)F)c2)CC1 | i
COc1ccccc1Cn1c(=O)c2ccccc2n2c(Sc3ncnc4sccc34)nnc12 | 65.1*
O=c1[nH]c(Cc2ccccc2)nc2c1oc1ccccc12 | 1.0
O=C(CC12CC3CC(CC(C3)C1)C2)N1CCCOC1 | 0.5
COc1ccc(Cl)cc1N1C(=O)C2CCCN2C1c1ccccc1F (configuration not stated) | 1.5
COc1c(F)c(F)c(C(=O)Nc2ccccc2N2CCN(C(C)=O)CC2)c(F)c1F | 1.3
Cc1oc2c(C)c(O)ccc2c(=O)c1-c1cnn(-c2ccccc2)c1 | 0.5
O=C(O)CCN1C(=O)c2ccc(NC(=O)c3cccs3)cc2C1=O | i
COC(=O)c1cccc(NC(=O)c2cccnc2)c1 | i
C/C(=C\c1ccco1)C1C(C#N)=C(N)Oc2n[nH]c(-c3ccc(C)cc3)c21 (configuration not stated) | i
O=C1NC(c2ccncc2)C(C(=O)c2cccs2)C(O)(C(F)(F)F)N1 (configuration not stated) | i
CNC(=S)NNC(=O)c1cccn(Cc2ccc(Cl)cc2Cl)c1=O | i
CCCC/C(O)=C1\C(=O)CC(C)(C)CC1=Nc1ccccc1OC | 2.3
CCOc1ccc(C2SCC(=O)N2c2c(C)n(C)n(-c3ccccc3)c2=O)cc1 (configuration not stated) | 0.3
CCCN(CCC)c1nc(N)nc(-c2cc(Cl)ccc2OC)n1 | i
C=CCNc1ncnc2c1[nH]c1ccccc12 | i
CCOC(=O)C(NC(=O)CC)C(O)c1cccc([N+](=O)[O-])c1 (configuration not stated) | 0.5
O=C(CSc1ncn(-c2ccccc2)n1)NCc1ccccc1 | i
CCCCOC(=O)Nc1nnc(CC)s1 | 0.4
COc1ccc2cc(CCNC(=O)C(C)(C)C)c(=O)[nH]c2c1 | 1.9
CC(C)C(=O)Nc1ccc(C(=O)NNC(=O)CCCOc2ccc(Cl)cc2Cl)cc1 | i
CC(=O)c1c(C(C)=O)c(C)n(Cc2ccc3c(c2)OCO3)c1C | 0.4
Cc1nn(Cc2ccccc2Cl)c2sc(C(=O)NC(C)(C)C)cc12 | i
CC(C(=O)N1CCN(c2ccccc2)CC1)N1C(=O)C2CC=CCC2C1=O (configuration not stated) | 0.8
CCOc1ccc(C(=O)NC(C(=O)NCc2ccccn2)C(C)C)cc1 (configuration not stated) | i
CCOc1ccc(S(=O)(=O)NCc2ccc(F)cc2)c2cccnc12 | 2.0
COc1ccccc1NC(=O)CSc1ncnc2c1oc1ccccc12 | 2.8
O=C(OCC(=O)N(C1CCCCC1)C1CCCCC1)c1cnccn1 | 0.7

(listing goes on)
SMILES | H5N1 CPE
COc1cc2c(C(=O)NCc3ccc4c(c3)OCO4)cn(C)c(=O)c2cc1OC | 0.6
Cc1cc(C(=O)O)ccc1-n1c(C)ccc1C | 1.9
Cc1ccc(Cl)cc1N1CCN(C(c2ccc(C#N)cc2)c2nnnn2C2CCCC2)CC1 (configuration not stated) | 1.6
CCOc1cc2[nH]c(=S)n(Cc3ccc(C(=O)NCCOC)cc3)c(=O)c2cc1OCC | 3.5
CCN1C(=O)NC2C1N(S(C)(=O)=O)CCN2S(C)(=O)=O (configuration not stated) | i
CC(C)=C1SC(N2CCN(c3cccc(C)c3)CC2)=NC1=O | 0.6
N#Cc1nc(Cc2cccc3ccccc23)oc1NCCCn1ccnc1 | 2.1
O=c1oc(Nc2cccc(F)c2)nc2ccccc12 | i
COc1ccc(Cl)cc1Nc1nc(N)nc(C(F)(F)F)n1 | 0.7
CCCCn1c(O)c(C(CC)=NCc2cccnc2)c(=O)[nH]c1=O | 1.0

Not all compounds are listed (hit frequency here may not be typical).
